Env fusion inh: blocks HIV Env-driven cell-cell fusion | inhibition, % at 12.3 µM | 360,000 compounds, 1.1% hits | HeLa-JRFL Env/CEM21 cell fusion, luciferase | AID 651610;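 active = mean replicate inhibition score of at least 50 and every replicate individually at or above 50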;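 note: 0% = plate neutral controls and 100% = maraviroc near 300 nM; one replicate is shown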
PABP FP inh: blocks human PABP binding to poly(A) RNA | P11940 | fluorescence polarization | inhibition, % at 35 µM | 290,000 compounds, 1% hits;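 active = 50% or more with normal probe brightness, or confirmed in later tests; about a fifth of its hits are not listed in these tables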;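 note: calls also rest on retests at 20 µM and on dose response follow-up; controls were probe without protein and protein plus probe with vehicle; some compounds called inactive have numbers as strong as hits; many hits fall short of the cut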
Target sequence (P11940 whole entry, looked up): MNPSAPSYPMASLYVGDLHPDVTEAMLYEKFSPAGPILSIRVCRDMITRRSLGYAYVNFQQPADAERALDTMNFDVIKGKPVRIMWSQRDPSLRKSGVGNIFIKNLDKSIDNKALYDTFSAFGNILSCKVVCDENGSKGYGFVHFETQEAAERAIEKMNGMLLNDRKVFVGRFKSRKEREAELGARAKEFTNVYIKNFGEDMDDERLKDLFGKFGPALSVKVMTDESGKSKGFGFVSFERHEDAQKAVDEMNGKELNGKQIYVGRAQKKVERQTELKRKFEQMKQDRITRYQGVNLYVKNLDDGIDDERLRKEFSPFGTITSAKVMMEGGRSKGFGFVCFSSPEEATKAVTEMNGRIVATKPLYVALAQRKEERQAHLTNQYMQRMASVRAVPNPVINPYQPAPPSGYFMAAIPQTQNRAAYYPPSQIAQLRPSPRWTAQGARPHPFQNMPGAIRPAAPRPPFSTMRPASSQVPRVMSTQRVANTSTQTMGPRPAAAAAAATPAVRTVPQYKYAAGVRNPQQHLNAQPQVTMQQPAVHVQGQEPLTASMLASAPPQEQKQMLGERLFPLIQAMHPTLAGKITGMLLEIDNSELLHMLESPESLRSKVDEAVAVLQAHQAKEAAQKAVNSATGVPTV
MT1-MMP act inh: blocks activation of human MT1-MMP; HT1080 RFP-PRO-GFP cells, GFP/RFP ratio fluorescence, overnight; percent of plate control window, DMSO zero; AID 651647; GFP/RFP ratio change, % at 20 µM; 360,000 compounds, 0.061% hits; P50281;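 active = GFP/RFP ratio change of at least 30% with cell ATP level not reduced by more than half and red fluorescence within 50% of control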; note: strong numbers were not always called active
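Assay system: HT1080 RFP-PRO-GFP cells. Benchmarks: DMSO vehicle wells and RFP-L50D-GFP reporter cell wells. Times: overnight cell settling, then overnight compound exposure, 37 °C, 5% CO2. Compound: 20 µM single dose, 1% DMSO. Read-out basis: GFP/RFP fluorescence ratio.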
eIF4H FP inh: inhibitors of RNA binding by human eIF4H; inhibition, % at 35 µM; Q15056; eIF4H fluorescence polarization binding assay; 290,000 compounds, 0.94% hits;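 active = 50% or more with normal probe brightness, or confirmed in later tests; about a fifth of its hits are not listed in these tables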;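 note: calls also rest on retests at 20 µM and on dose response follow-up; 0% = protein and probe with vehicle and 100% = probe without protein; strong numbers were not always called active; many hits fall short of the cut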
UUG fidelity: alters start codon recognition fidelity in yeast. S. cerevisiae UUG-firefly luciferase reporter, luminescence/redox ratio. AID 602363. activity score, % at 18.7 µM. 350,000 compounds, 0.13% hits;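 active = replicate mean at a twofold rise or more, about +100% in these data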;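 note: firefly luciferase made from a UUG start codon reports start codon fidelity; reporter light over untreated wells divided by growth signal over untreated wells; some hits fall short of that in this replicate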
CSC inhib: cancer stem cell inhibition | cancer stem cell-like cells viability, luminescence | inhibition, % at 7.5 µM | 300,000 compounds, 1.1% hits | AID 2717;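 active = mean at 75% or more and at least half the replicates too; tested in HMLE shEcad cells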;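 note: 0% = median of negative and 100% = median of positive control wells; the first replicate is given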
Rce1 inhib: yeast Ras-converting enzyme inhibition | yeast membranes, quenched prenylated peptide cleavage fluorescence | AID 2563 | 290,000 compounds, 0.27% hits | calls only | Q03530;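 active = fall in fluorescence gain of 50% or more versus controls, with final raw signal at or below 3038400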;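 note: plate controls were neutral control wells for no effect and wells lacking membranes for full effect; tested at 10 µM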
Target sequence (Q03530 whole entry, looked up): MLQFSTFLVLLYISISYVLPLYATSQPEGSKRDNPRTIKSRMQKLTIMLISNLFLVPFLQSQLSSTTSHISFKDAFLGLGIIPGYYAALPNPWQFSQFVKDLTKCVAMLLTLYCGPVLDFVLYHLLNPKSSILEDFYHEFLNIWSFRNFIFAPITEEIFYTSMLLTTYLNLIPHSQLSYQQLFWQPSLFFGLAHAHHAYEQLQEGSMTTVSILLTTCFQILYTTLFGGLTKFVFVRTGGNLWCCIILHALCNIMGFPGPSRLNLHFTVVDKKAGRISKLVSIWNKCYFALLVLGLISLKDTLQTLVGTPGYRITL
MT1-MMP act inh RFP: also measured in MT1-MMP act inh; calls as there; RFP signal change, %; measured here: RFP expression control read;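 0 = vehicle wells; hits needed this value within 50% of zero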
An asterisk follows results filed as active; i = inactive; nt = no result given.

SMILES	Env fusion inh	PABP FP inh	MT1-MMP act inh	MT1-MMP act inh RFP	eIF4H FP inh	UUG fidelity	CSC inhib	Rce1 inhib
O=C(CSc1nnc(CNC(=O)c2ccco2)o1)Nc1cccc(C(F)(F)F)c1	-7	-3	5	8	-9	-14	-8	i
CN(CC(=O)Nc1ccc(N2CCOCC2)cc1)Cc1cc(=O)n2ccsc2n1	-9	-1	2	1	7	3	-16	i
O=C(CN(Cc1ccc(Cl)cc1)C(=O)CN1C(=O)COc2ccccc21)NC1CCCC1	-7	2	-3	-1	8	6	-2	i
Cc1cccc(N2CCN(C(=O)c3ccc(CNc4c(N5CCC(C)CC5)c(=O)c4=O)cc3)CC2)c1C	-3	5	2	-10	8	nt	15	i
Cc1ccc(-c2nnc(CSc3nncn3N)o2)cc1	nt	3	3	1	-3	-15	-1	i
Cc1nc(Cl)sc1C(=O)Nc1cccc(Cl)c1	-16	1	1	1	-7	-14	28	i
COC(=O)c1scc(C)c1NC(=O)C(Cl)c1ccccc1 (stereo not given)	-27	-11	1	1	-17	nt	12	i
Nc1c(Cl)cc(N=Nc2ccccc2)cc1Cl	-17	nt	1	1	nt	-5	nt	nt
Clc1cccc(N2CCN(Cc3nnc(-c4ccccc4)o3)CC2)c1	-2	2	3	4	-8	17	12	i
CN(C)CCCNc1nc(N)c([N+](=O)[O-])c(NC2CCCCC2)n1	-23	2	-4	-3	-2	15	6	i
CCOC(=O)C1(C)NC(c2ccco2)C2C(=O)N(c3ccccc3)C(=O)C21 (stereo not given)	-27	0	-2	-2	5	nt	-12	i
O=C(Nc1cccc(C(F)(F)F)c1)c1csc([C@H]2C[C@H](O)[C@@H](CO)O2)n1	3	nt	2	-1	nt	-13	nt	nt
CCCCNC(=S)NNC(=O)c1ccc2c(c1)OCO2	nt	1	-1	0	-2	nt	-10	i
O=C(O)c1cc(NC(=O)c2cccc(N3C(=O)c4ccccc4C3=O)c2)cc(C(=O)O)c1	20	30	0	2	12	-10	-3	i
Cc1cc(=O)[nH]c(N2CCc3ccccc3C2)n1	-31	2	7	7	-2	-12	-8	i
O=C(CSc1ccccn1)NC1CCCC1	nt	-7	nt	nt	3	nt	8	i
CN(C)c1ccc(/C=N/NC(=O)CNC(=O)/C=C/c2ccco2)cc1	3	9	-1	-3	2	-6	5	i
Cc1ccnc(NS(=O)(=O)c2ccc(NC(=O)CN3C(=O)CCC3=O)cc2)n1	-1	4	-2	-1	2	-15	-5	nt
CC(C)Cn1cnc2c1c(=O)n(CC(=O)NC(=O)NC(C)(C)C)c(=O)n2Cc1ccccc1	4	7	-45	-29	-12	6	-15	nt
COc1ccc(C2(C(=O)O)CCCC2)cc1	-89	2	-3	-4	-3	-12	-6	i
CC1CN(C(=O)c2ccccc2)OC(c2ccc3c(c2)OCO3)O1 (stereo not given)	nt	-1	-1	9	7	-4	4	i
CC1CC(C)CN(CCCNC(=O)C2CCCN(S(=O)(=O)N3CC(C)CC(C)C3)C2)C1 (stereo not given)	1	nt	-37	-45	nt	-7	11	i
O=C(Nc1nccs1)C1CCN(S(=O)(=O)c2cccs2)CC1	12	-1	-5	-6	-1	-15	-4	i
O=[N+]([O-])c1cc(S(=O)(=O)N2CCCC2)ccc1SCCO	4	-7	-1	1	-4	-1	-9	i
CCN(CC)CCNc1nc2c(c(=O)[nH]c(=O)n2C)n1CC(O)COc1ccc(Cl)cc1Cl (stereo not given)	nt	-10	0	2	1	-12	-2	i
Additional results follow.
SMILES	Env fusion inh	PABP FP inh	MT1-MMP act inh	MT1-MMP act inh RFP	eIF4H FP inh	UUG fidelity	CSC inhib	Rce1 inhib
Cc1ccc2c(c1)c(N=Nc1cccc(C(=O)O)c1)c(O)n2C	-39	-8	-2	3	-9	nt	12	i
Cc1c(CN2CCC(C)CC2)c(=O)n(-c2ccccc2)n1C	-7	-4	-2	3	-14	-6	-4	i
CCOC(=O)c1c(NC(=O)Nc2ccccc2)sc(C)c1C	nt	0	-19	-14	-12	-21	3	i
O=C1C=C(Nc2ccccc2)C(=O)c2ccccc21	nt	8	24	-5	3	-1	52	i
COC(=O)c1ccc(COc2ccccc2/C=C(\C#N)C(=O)Nc2ccc(C)cc2)cc1	nt	-5	9	2	-9	-4	44	i
C=CCNCCCCOc1ccccc1-c1ccccc1	-28	6	-4	-1	-4	nt	nt	i
c1ccc2c(c1)nc(N1CCOCC1)c1c3ccccc3[nH]c21	nt	20	-4	-10	-2	nt	-5	i
Cn1c(=O)c2c(nc(Br)n2CCSc2ncccn2)n(C)c1=O	nt	5	2	4	5	-8	-20	i
CC12CC(NC(=O)N1Cc1ccccc1)c1ccccc1O2 (stereo not given)	-62	2	2	1	12	-6	-11	i
COc1ccc(C2CC(=O)N(c3ccccc3)C3=C2C(=O)CCC3)cc1 (stereo not given)	23	-1	1	3	-8	-21	-4	i
CCn1c(=O)c(C(=O)Nc2ccccc2C)c(O)c2ccccc21	nt	-9	0	-2	2	-13	-7	i
C[C@@H]1NC(=O)c2cc([N+](=O)[O-])cc(I)c2OCC[C@@H](C(=O)NC(CC(=O)O)C(N)=O)NC(=O)[C@H](CCC(=O)O)NC1=O (stereo not given in full)	nt	-4	nt	nt	39	nt	-2	nt
O=c1cc(CN2CCN(c3ccccc3)CC2)c2cc(O)c(-c3ccccc3)cc2o1	nt	7	7	0	2	-1	-2	i
COc1cc(C(C)=O)ccc1COc1ccc(C(=O)OCC(=O)NC2CCS(=O)(=O)C2)cc1OC (stereo not given)	nt	4	1	3	13	-32	-18	i
N/C(=N\OC(=O)c1ccc2c(c1)OCO2)c1cccc(Br)c1	-61	-2	3	-2	-8	-31	-9	i
COc1ccc(C)cc1Nc1nc(N)c2ccccc2n1	-31	-3	11	-3	-11	-6	4	i
Cc1ccc(SCc2nc3ncccn3c2Br)cc1	5	-1	0	3	-1	-18	-8	i
COc1ccc(S(=O)(=O)N(C)C)cc1NCC(=O)Nc1cccc(C#N)c1	7	-6	1	-3	-4	16	9	i
CSc1nc2c(cc1C#N)CCCCC2	21	2	0	2	6	-20	-19	i
Cc1nc(Nc2ccc3c(c2)OCCO3)c2nnn(Cc3ccccc3Cl)c2n1	38	-10	-22	-22	-4	-18	3	i
CC1=C(C(=O)OCc2ccccc2)C(c2ccccc2OS(=O)(=O)c2ccc(C)cc2)NC(=O)N1CCCC(=O)O (stereo not given)	41	nt	nt	nt	nt	nt	-7	i
CCOC(=O)c1c(NC(=O)CSc2ncnc3[nH]ncc23)sc2c1CCC(C)C2 (stereo not given)	13	-11	-9	-11	-6	-4	-15	i
CCN(CC(=O)Nc1c(F)cccc1F)C(=O)c1cc(S(=O)(=O)NCc2ccccc2)ccc1C	-14	nt	16	-1	nt	-5	10	i
CN1CCN(c2nc(-c3cccs3)cs2)CC1	4	1	-3	0	-4	nt	4	i
COc1ccc(-c2nc3c(c4nnc(SC(C)C(=O)Nc5ccccc5)n24)COC(C)(C)C3)cc1 (stereo not given)	nt	4	-5	3	-11	nt	-6	i

Reprinted at random: two entries already listed
SMILES	Env fusion inh	PABP FP inh	MT1-MMP act inh	MT1-MMP act inh RFP	eIF4H FP inh	UUG fidelity	CSC inhib	Rce1 inhib
Cc1nc(Nc2ccc3c(c2)OCCO3)c2nnn(Cc3ccccc3Cl)c2n1	38	-10	-22	-22	-4	-18	3	i
CC1=C(C(=O)OCc2ccccc2)C(c2ccccc2OS(=O)(=O)c2ccc(C)cc2)NC(=O)N1CCCC(=O)O (stereo not given)	41	nt	nt	nt	nt	nt	-7	i

Next section:
SMILES	Env fusion inh	PABP FP inh	MT1-MMP act inh	MT1-MMP act inh RFP	eIF4H FP inh	UUG fidelity	CSC inhib	Rce1 inhib
Cc1ccc(OCC(=O)NCc2ccco2)cc1C	-25	-9	-2	4	-4	-15	-2	i
CN1C(=O)C(C)(C)c2cc(S(=O)(=O)N(C)Cc3ccccc3)ccc21	3	-8	2	0	-3	-2	-2	i
CCc1cccc2c(C(=O)C(NC(C)CC)c3ccccc3)c[nH]c12 (stereo not given)	-5	11	-3	-1	-3	-15	0	i
CCOC(=O)N1CCC(N2Cc3cccc(C(=O)NCC4CCN(CC(C)C)C4)c3C2=O)CC1 (stereo not given)	-17	1	3	6	6	7	4	nt
O=C(CN1CCCCCC1)NCC1CCCO1 (stereo not given)	12	-3	1	1	4	nt	5	i
CC1=NN(C(=O)c2c(Br)c(C)nn2C)C(O)(C(F)(F)F)C1 (stereo not given)	4	-2	2	0	2	-9	nt	i
Cc1nc(C)c(-c2csc(Nc3cccnc3)n2)s1	nt	-1	1	-4	1	-15	-1	i
O=C(NC(=S)NNC(=O)c1ccc(Cl)cc1Cl)c1cccnc1	-3	9	4	6	-2	-23	14	i
NC(=O)C1CC12c1ccccc1-c1ccccc12 (stereo not given)	-1	-4	0	1	0	-14	6	i
O=C(CN1C(=O)NC2(CCCC2)C1=O)N1CCN(S(=O)(=O)c2cccc(F)c2)CC1	0	-4	0	5	-5	-9	nt	i
Cc1ccc(CCc2nnc(SCC(=O)Nc3cccc(Cl)c3)n2-c2ccccc2)o1	nt	-1	-12	-7	-10	nt	-8	i
COc1ccc(OC)c(NC(=S)NCC(c2cccnc2)N2CCOCC2)c1 (stereo not given)	-15	5	-2	-1	-10	-30	-9	i
CC(=O)NC1CC2CCC(C1)N2Cc1ccc(C)cc1 (stereo not given)	-1	45	4	3	1	-26	-5	i
O=C(COC(=O)c1ccc(Cl)nc1)NCCc1ccc(F)cc1	nt	nt	3	2	nt	-19	-23	nt
CCc1cc(CNC(=O)CC2C(=O)NCCN2Cc2ccccc2C(F)(F)F)on1 (stereo not given)	11	14	-2	-2	30	-11	-14	i
COc1ccc(C(=O)N/N=C/c2ccc3cccc(O)c3n2)cc1	12	-1	5	-1	14	nt	3	i
O=C(NCc1nnnn1-c1ccc(F)cc1)c1cc2ccccc2o1	12	nt	-2	2	nt	3	nt	nt
OC(c1cccc(Cl)c1)c1nc(-c2ccc(Cl)cc2)cs1 (stereo not given)	1	nt	3	4	nt	-26	nt	nt

Among those listed so far, these have a Cl atom:
SMILES	Env fusion inh	PABP FP inh	MT1-MMP act inh	MT1-MMP act inh RFP	eIF4H FP inh	UUG fidelity	CSC inhib	Rce1 inhib
O=C(CN(Cc1ccc(Cl)cc1)C(=O)CN1C(=O)COc2ccccc21)NC1CCCC1	-7	2	-3	-1	8	6	-2	i
Cc1nc(Cl)sc1C(=O)Nc1cccc(Cl)c1	-16	1	1	1	-7	-14	28	i
COC(=O)c1scc(C)c1NC(=O)C(Cl)c1ccccc1 (stereo not given)	-27	-11	1	1	-17	nt	12	i
Nc1c(Cl)cc(N=Nc2ccccc2)cc1Cl	-17	nt	1	1	nt	-5	nt	nt
Clc1cccc(N2CCN(Cc3nnc(-c4ccccc4)o3)CC2)c1	-2	2	3	4	-8	17	12	i
CCN(CC)CCNc1nc2c(c(=O)[nH]c(=O)n2C)n1CC(O)COc1ccc(Cl)cc1Cl (stereo not given)	nt	-10	0	2	1	-12	-2	i
Cc1nc(Nc2ccc3c(c2)OCCO3)c2nnn(Cc3ccccc3Cl)c2n1	38	-10	-22	-22	-4	-18	3	i
O=C(NC(=S)NNC(=O)c1ccc(Cl)cc1Cl)c1cccnc1	-3	9	4	6	-2	-23	14	i
Cc1ccc(CCc2nnc(SCC(=O)Nc3cccc(Cl)c3)n2-c2ccccc2)o1	nt	-1	-12	-7	-10	nt	-8	i
O=C(COC(=O)c1ccc(Cl)nc1)NCCc1ccc(F)cc1	nt	nt	3	2	nt	-19	-23	nt
OC(c1cccc(Cl)c1)c1nc(-c2ccc(Cl)cc2)cs1 (stereo not given)	1	nt	3	4	nt	-26	nt	nt

High-throughput results as filed in PubChem.

Not all compounds are listed; rates above refer to the full screens.
